# Ecoli rRNA inh – reduced GFP signal of wild-type E. coli, primary screen, bacterial rRNA inhibitor project, GFP/RFP fluorescence, OD600, single point | GFP signal change (wild-type ribosome), % (no concentration beside the values) | 1.6% of 350,000 active | E. coli WT GFP vs humanized-ribosome RFP mutants, 24 h; active compounds read low; DMSO median 0, no signal -100;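 active = significant combined selectivity score with lowered wild-type GFP, culture density cut under 30%, mutant RFP and density less affected; inactive = any of these conditions unmet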; note: one replicate is shown; some compounds called inactive have numbers as strong as hits
# ALR H2O2 inh – inhibitors of human ALR sulfhydryl oxidase, primary screen, biochemical, H2O2 detection, HRP-luminol luminescence, single point. 3.8% of 290,000 active. AID 485317, 2010. FAD-linked sulfhydryl oxidase ALR (Homo sapiens), P55789. purified ALR, DTT oxidation. inhibition, % (no concentration beside the values);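 active = mean and each replicate at 75% or more; inconclusive = only one of the two met; inactive = neither met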;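 note: stock transfer was 7.5 nL into about 7.5 µL; 0% = neutral wells and 100% = wells with inactivated enzyme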
# Target sequence (P55789 whole entry, looked up): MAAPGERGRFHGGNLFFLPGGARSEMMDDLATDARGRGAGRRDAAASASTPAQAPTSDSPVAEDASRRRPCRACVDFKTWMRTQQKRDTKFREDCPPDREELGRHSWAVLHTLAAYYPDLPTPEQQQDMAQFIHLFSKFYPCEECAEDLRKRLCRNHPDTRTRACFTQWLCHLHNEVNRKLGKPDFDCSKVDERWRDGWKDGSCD
# RanGTP-Impb inh – inhibitors of RanGTP-importin-beta interaction, primary screen, biochemical, FRET, CFP-Ran, YFP-importin-beta, homogeneous. Ran GTPase (GTP-bound) - importin-beta complex. cell-free CFP-Ran/YFP-importin-beta FRET ratio. inhibition, % (no concentration beside the values). 1.1% of 300,000 active;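 active = most replicates above 15%; inconclusive = exactly half above 15%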;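 note: 0% = DMSO wells and 100% = Ran loaded with GDP instead of GTP; wells of about 40 µL received 100 nL stock; the first replicate is given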
# AF4-AF9 inh – inhibitors of AF4 peptide binding to AF9, primary screen, biochemical, AlphaScreen, biotin-AF4 peptide, FLAG-AF9, single point; Protein AF-9 (Homo sapiens), P42568; inhibition, % at 10 µM; 0.47% of 350,000 active;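 active = every replicate reaching a set inhibition limit, whatever the replicate mean, cut at about 25% in these data; inconclusive = mean inhibition reaches that limit but some replicates miss it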;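 note: 0% = plate neutral control median and 100% = total signal loss; the record names both 10 and 1 µM as test concentration; the first replicate is given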
# Target sequence (P42568 whole entry, looked up): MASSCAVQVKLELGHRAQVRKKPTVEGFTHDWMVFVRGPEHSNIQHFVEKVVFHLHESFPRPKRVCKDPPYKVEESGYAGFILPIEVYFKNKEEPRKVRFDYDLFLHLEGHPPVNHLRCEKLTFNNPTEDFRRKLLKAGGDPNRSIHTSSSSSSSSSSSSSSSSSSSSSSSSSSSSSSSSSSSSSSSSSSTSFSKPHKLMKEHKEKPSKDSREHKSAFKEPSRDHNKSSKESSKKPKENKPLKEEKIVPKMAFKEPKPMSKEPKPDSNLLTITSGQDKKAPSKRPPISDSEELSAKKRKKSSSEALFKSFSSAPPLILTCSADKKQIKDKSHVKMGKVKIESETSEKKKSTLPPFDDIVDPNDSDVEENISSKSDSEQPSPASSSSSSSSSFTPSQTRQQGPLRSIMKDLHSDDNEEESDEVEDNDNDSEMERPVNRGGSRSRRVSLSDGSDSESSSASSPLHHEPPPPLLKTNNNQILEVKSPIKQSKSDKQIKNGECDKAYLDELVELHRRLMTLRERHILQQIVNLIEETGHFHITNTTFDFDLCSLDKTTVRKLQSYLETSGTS
# Beta apoptosis – inhibitors of cytokine-induced beta cell apoptosis, primary screen, luminescence | INS-1E cytokine-induced death, ATP luminescence, 48 h; percent of positive-control rescue, neutral wells zero | protection from apoptosis, % (concentration not given with the values) | 0.8% of 300,000 active;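 active = all replicates at 75% or more, or half of them and the mean; inconclusive = half reach 75% but not the mean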;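 note: 0% = cytokine-treated negative control wells and 100% = positive control rescue; higher means more ATP so stronger rescue from cytokine killing; wells of about 40 µL received 100 nL stock; the first replicate is given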
# Calb FLC – C. albicans growth inhibition with fluconazole, primary screen, CaCi-2 strain, Alamar Blue fluorescence. C. albicans CaCi-2 (fluconazole-resistant clinical isolate) + fluconazole, 48 h. growth inhibition, % (no concentration beside the values). 0.57% of 300,000 active. AID 1979, 2009;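 active = most replicates above 75%; inconclusive = exactly half above 75%; inactive = most below 75%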;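 note: all wells also contain fluconazole at 8 µg/ml as a sub-toxic cotreatment; 0% = median of DMSO wells and 100% = median of geldanamycin control wells; wells of about 8 µL received 7.5 nL stock; the first replicate is given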
# T cruzi repl – inhibitors of intracellular T. cruzi growth, primary screen, luminescence, NIH3T3 host cells | T. cruzi beta-gal in NIH3T3, 90 h | inhibition, % (no concentration beside the values) | 1.4% of 300,000 active | AID 1885, 2009;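 active = mean inhibition across valid replicates above about 55%, limit read from the data; inconclusive = mean below that limit but half or more replicates reach it; inactive = mean below it, under half of replicates reach it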;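 note: signal also drops with host cell toxicity which is not excluded here; 0% = plate median of DMSO wells and 100% = zero luminescence signal; higher percent means less beta-gal luminescence so fewer parasites; stock transfer was 50 nL into about 50 µL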
# FGF22 binding – binders of human FGF22 protein, primary screen, FGF22 synaptogenesis inhibitor project, biophysical, thermal shift, single point; recombinant FGF22 thermal shift, SYPRO orange fluorescence; percent of sucrose octasulfate shift, DMSO zero; 1.5% of 340,000 active; Fibroblast growth factor 22 (Homo sapiens), Q9HCT0; calls only at 9.99 µM;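 active = melting point raised past a set limit in the mean and every replicate; inconclusive = no clear call; three in four hits are not shown here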
# Target sequence (Q9HCT0 whole entry, looked up): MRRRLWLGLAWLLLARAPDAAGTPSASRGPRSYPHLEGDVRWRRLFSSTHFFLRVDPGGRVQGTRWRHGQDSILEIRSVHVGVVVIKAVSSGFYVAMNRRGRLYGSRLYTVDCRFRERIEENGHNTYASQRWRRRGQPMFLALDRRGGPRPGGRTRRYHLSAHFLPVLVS
# Ecoli rRNA inh OD600 – also measured in Ecoli rRNA inh; calls as there; OD600 change, %; measured here: OD600 growth;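 optical density of the mix in the first replicate; 0 = DMSO median and -100 = no signal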
# Ecoli rRNA inh RFP – second read-out of Ecoli rRNA inh, no call of its own (marks repeat the call); RFP signal change, %; measured here: RFP humanized mutant strains;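 first replicate; 0 = DMSO median and -100 = no signal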
# * marks the source's active call; other numbers are inactive results; i = inactive; ? = inconclusive; . = no result given.
SMILES,Ecoli rRNA inh,Ecoli rRNA inh OD600,Ecoli rRNA inh RFP,ALR H2O2 inh,RanGTP-Impb inh,AF4-AF9 inh,Beta apoptosis,Calb FLC,T cruzi repl,FGF22 binding
O=C(Cc1cccc2ccccc12)NNC(=O)c1ccc(Br)o1,-47,-64,-10,-8,0.4,-2.5,-7,19,-16,i
COc1ccc(NC(=O)CC2S/C(=N\c3nccs3)N(C)C2=O)cc1 (stereo not drawn),.,.,.,20,?,.,0,13,-13,.
CCCC(=O)NC(c1ccc(OC)c(OC)c1)c1c(O)ccc2ccccc12 (stereo not drawn),.,.,.,8,2.7,.,1,9,-2,.
CCCCn1c(N)c(N(CCOC)C(=O)CN(C)CC(=O)Nc2ccc(Cl)c(Cl)c2)c(=O)[nH]c1=O,1,2,0.6,-15,.,-0.2,-1,.,.,i
CCOCC(=O)Nc1cc(C(F)(F)F)ccc1Oc1cccc(Br)c1,.,.,.,-1,2.5,.,1,-8,22,.
Cc1ccc(C)c(OCCC(=O)NNC(=O)c2cc(C)oc2C)c1,10,7,2.0,23,.,-1.8,-7,.,.,i
COc1ccc2nc(NS(=O)(=O)c3ccc(NC(C)=O)cc3)sc2c1,.,.,.,-2,0.6,.,.,1,-4,.
O=C(c1ccc(-c2cccc(C(F)(F)F)c2)o1)N1CCN(c2ccccc2O)CC1,-27,-43,11,1,-3.1,-0.8,-1,-14,17,i
CCc1ccc(C(C(=O)NC2CCCC2)N(CCOC)C(=O)CCC(=O)Nc2cc(C)on2)cc1 (stereo not drawn),0,2,-0.5,4,?,0.3,-4,15,0,i
O=C(c1ccccc1)N1CCN(c2ncnc3sc4c(c23)CCC4)CC1,.,.,.,.,-3.0,.,25,2,-25,.
CC1(N2CCOCC2)CC2(O)C(=[N+]1[O-])CCc1c2no[n+]1[O-] (stereo not drawn),.,.,.,-47,-0.2,.,-4,19,-12,.
COC(=O)c1sccc1N/C=C(\C#N)S(=O)(=O)C(C)(C)C,9,8,4.5,-1,-0.2,0.2,-2,-1,-12,i
COc1ccc(NS(=O)(=O)c2cc(Cl)ccc2Cl)cc1S(=O)(=O)N1CCCCC1,-29,-46,-3.0,-18,-1.2,0.4,2,-15,8,i
O=C(Cc1ccccc1)NC(NCCCN1CCOCC1)(C(F)(F)F)C(F)(F)F,.,.,.,4,-0.7,.,-2,-1,2,.
COc1cccc(Nc2nc(-c3ccccc3)nc3ccccc23)c1,-24,-62,19,-1,-1.4,-5.4,8,13,12,i
COc1c(Br)cc(Br)cc1C(=O)Nc1ccccc1N1CCCC1,-13,-7,-7.0,3,7.5,-0.9,-3,12,15,i
O=C(NC1CCc2ccccc21)C1CCN(S(=O)(=O)c2ccc(-n3cnnn3)cc2)CC1 (stereo not drawn),.,.,.,-16,1.9,.,0,1,0,.
CCC(=O)N1C(Cc2ccccc2)COC1(C)C (stereo not drawn),.,.,.,.,1.0,.,-17,-13,-22,.
CCc1ccc(/C(C)=N/NC(=O)C(O)c2ccccc2)s1 (stereo not drawn),-2,5,-0.4,1,-0.5,0.7,-6,-13,-2,i
S=C(NCCc1ccccn1)Nc1cc(Cl)cc(Cl)c1,-32*,13*,-2.9*,1,-1.3,0.6,4,-6,0,i
CC1(C)CC(=O)C2=C(C1)Nc1ccccc1NC2c1ccc(F)cc1 (stereo not drawn),-1,-12,61,99*,-0.5,0.4,3,2,4,i
O=c1[nH]c2ccc(Cl)cc2c(-c2ccccc2)c1[N+](=O)[O-],-15,-16,2.5,-6,2.6,-3.4,-6,0,-10,i
O=S1(=O)CC2NC(=S)N(c3cccc(Br)c3)C2C1 (stereo not drawn),14,2,1.8,-3,-2.3,-1.6,-3,0,-8,i
O=C(NC(c1ccccc1)c1ccccc1)c1cccc(S(=O)(=O)NCc2ccccc2)c1,.,.,.,-4,9.7,-0.8,8,30,16,i
O=C(c1ccco1)N1CCN(C(=O)C2CC(c3ccccc3F)=NO2)CC1 (stereo not drawn),3,0,2.1,-7,1.4,-13,0,2,-5,i
O=c1c2cnn(-c3ccc(F)cc3)c2ncn1Cc1cccnc1,.,.,.,-4,?,.,0,-11,-5,.
CCCC(=O)Nc1ccc(OCC(=O)OC)cc1,.,.,.,-9,-5.5,.,-4,-14,-4,.
O=C(CN1C(=O)S/C(=C\c2ccc(C(=O)O)cc2)C1=O)Nc1ccccc1,-3,9,4.3,16,3.3,-4.5,-2,9,-13,i
O=C(CNC(=O)c1ccc2c(c1)OCO2)NCc1cccs1,8,11,2.3,0,.,8.2,-16,.,.,i
CC(=O)Oc1cc2c(C(=O)NCc3ccncc3)c(C)oc2c2ccccc12,-6,-23,1.8,-46,-0.2,-2.4,.,15,-2,i
COC(=O)Cc1ccc(OCc2ccc(Cl)nc2)cc1,-15,1,2.6,-1,-0.1,1.8,-1,-19,9,i
COc1ccc(CNC(=S)N/N=C(\C)c2ccc(OC)cc2)cc1,-17,-20,5.3,10,0.5,-58,-10,-8,-5,i
CC1CCN(C(=O)CSc2n[nH]c(-c3cccs3)n2)CC1,.,.,.,-1,-0.2,-4.2,-5,1,-3,i
O=C(NC1(C(F)(F)F)NC(=O)N(c2ccc(F)c(Cl)c2)C1=O)c1ccncc1 (stereo not drawn),-26,-32,-7.4,.,-0.7,-3.6,-5,-16,-3,i
COc1ccc(S(=O)(=O)NCCC(=O)NC(C)c2ccccc2)cc1 (stereo not drawn),.,.,.,-3,-2.8,.,2,-3,-22,.
O=C(Cc1ccc(-c2ccccc2)cc1)NCc1ccccc1,.,.,.,-5,-2.8,.,.,6,18,.
Cc1ccc(NS(=O)(=O)c2cccc(C(=O)O)c2)cc1S(=O)(=O)N1CCOCC1,7,6,4.7,-9,-0.9,-1.3,-2,-2,13,i
O=C([C@@H]1Cc2ccccc2CN1)N1CCN(Cc2ccccc2)CC1,3,5,-0.6,12,3.9,2.9,-3,-13,-10,i
NC(=O)c1ccsc1NC(=O)CSc1nnc(C2CC2)n1Cc1ccccc1,.,.,.,.,1.1,.,-7,-21,5,.
CCCOc1ccc(C(=O)N/N=C/c2ccc(-c3ccc(S(=O)(=O)Nc4ncccn4)cc3)o2)cc1,.,.,.,5,-2.8,.,-5,5,-1,.
CCOC(=O)C1CCN(C(=O)CSc2n[nH]c(=O)[nH]c2=O)CC1,.,.,.,-8,-0.5,.,2,5,-7,.
O=C1NN(c2ccccc2)C(=O)/C1=C/c1ccc(-c2cccc(C(=O)O)c2)o1,13,13,0.0,99*,0.0,-21,-7,?,-8,i
CCC1CCCCN1S(=O)(=O)c1ccc(C(=O)Nc2nnc(C3=COCCO3)o2)cc1 (stereo not drawn),-44,-69,-11,95*,-4.1,3.2,-2,-5,7,i
CC1CC(=O)N(c2ccc(NCc3ccc(Cl)cc3)c([N+](=O)[O-])c2)C1=O (stereo not drawn),21,18,-8.0,-11,-2.6,1.4,0,-1,-5,i
CN(Cc1ccccc1)c1ccc(C(=O)O)cc1[N+](=O)[O-],.,.,.,33,-1.7,.,.,-3,-2,.
COc1cc(CNc2ccc(N3CCOCC3)c(C(=O)O)c2)ccc1OCC(N)=O,.,.,.,.,5.9,.,-2,0,-13,.
COc1ccccc1CNC(=O)c1nnc(Cc2ccc(Cl)cc2)o1,-7,5,1.3,.,4.2,3.8,-8,7,0,i
O=C(O)c1ccccc1/C=N/Nc1ccc(S(=O)(=O)N2CCOCC2)cc1[N+](=O)[O-],5,11,-0.9,-7,-3.6,.,-5,25,-9,i
COc1ccc(NC(=O)CCNS(=O)(=O)c2cccc3nsnc23)cc1,-9,-5,0.6,-5,1.9,-0.7,1,1,-10,i
CCOc1ccc(/C=C(\C(=O)O)c2ccc(S(=O)(=O)N3CCCCC3)s2)cc1OC,-23*,-6.7*,7.7*,3,.,-4.4,0,.,.,i
# Other results follow:
SMILES,Ecoli rRNA inh,Ecoli rRNA inh OD600,Ecoli rRNA inh RFP,ALR H2O2 inh,RanGTP-Impb inh,AF4-AF9 inh,Beta apoptosis,Calb FLC,T cruzi repl,FGF22 binding
On1onc2c3cc(-c4ccccc4)nc3ccc21,-61,-72,-36,2,.,2.6,101*,.,.,i
CCN1C2OC3OC4C(OC3OC2N(CC)S1(=O)=O)N(CC)S(=O)(=O)N4CC (stereo not drawn),7,-9,-2.6,-1,2.9,-1.4,-11,15,-17,i
COc1ccc(CNC(=O)C(c2ccco2)N(C(=O)c2snc(C(N)=O)c2N)c2cccc(OC)c2)cc1 (stereo not drawn),3,1,1.6,-34,-2.3,0.2,0,7,7,i
O=C(COc1ccc2c(-c3ccccc3)cc(=O)oc2c1)Nc1cccnc1,4,3,-2.0,-7,3.6,-3.3,-4,3,-28,i
COc1cc(N=c2ssnc2Cl)cc(OC)c1,.,.,.,-8,1.4,.,2,-18,23,.
O=C(Cn1cc2c(n1)CCCC2)NCc1cccs1,10,15,-1.6,17,2.7,-1.9,-4,-1,-18,i
COc1cccc(OC)c1C(=O)NC(C)CCc1ccccc1 (stereo not drawn),1,4,-5.1,4,-3.8,-0.4,-9,3,21,i
Cc1ccc(C)c(Oc2ccc(S(=O)(=O)N3CCN(C)CC3)cn2)c1,3,-2,5.5,-1,0.3,3.4,1,.,55*,i
CC(C)c1ccc(NC(=O)C2CC(=O)N(C(C)C)C2)cc1 (stereo not drawn),.,.,.,-24,0.7,.,-2,-2,-3,.
COCCCNC(=O)CSc1nc2cc3c(cc2c(=O)n1CCCC(=O)NCc1ccc(OC)cc1)OCO3,16,-3,0.4,-9,1.3,-2.7,-6,0,-2,i
O=C(O)COCC(=O)Nc1cc(C(F)(F)F)cc(C(F)(F)F)c1,4,7,0.2,-4,?,-3.3,-2,-2,3,i
CN(CC(=O)Nc1ccc(N2CCOCC2)cc1)CC(=O)Nc1ccc(Cl)cc1[N+](=O)[O-],-4,4,2.5,43,-2.6,5.2,-1,2,-11,i
Nc1nonc1-n1nnc(C(=O)N/N=C/C2CCCCC2)c1-c1ccccc1,4,4,3.2,-4,-2.0,1.3,-6,-4,-20,i
CC(C)[C@H](N[C@@H](C)c1ccccc1)c1c(O)ccc2ccccc12,98,-13,62,-20,7.5,0.4,-5,7,12,i
COc1cc2ccccc2cc1C(=O)N1CCOCC1,3,5,-0.5,-4,0.8,0.2,-2,0,-9,i
Cc1ccc(C(=O)Nc2sc(Cc3ccc4c(c3)OCO4)c(C)c2C(N)=O)cc1,-5,-3,4.6,-12,?,-14,8,4,-37,i
C=C1CCN([C@@H](Cc2ccccc2)C(=O)NCCCc2ccccc2)S(=O)(=O)c2ccccc21,4,-3,-1.6,6,1.9,-3.9,.,-4,28,i

# Screening data deposited in PubChem BioAssay by Broad Institute.

# This is a subset, so the mix of outcomes need not match the whole.
